Bioassay records as filed in PubChem BioAssay.
GALR2 agonist – GALR2 receptor agonists, primary screen, cell-based. GALR2-expressing cells, agonist activation read-out. AID 803, 2007. hit rate 0.48% among 140,000. activation, %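 (tested at 5 µM)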. Galanin receptor type 2 (Homo sapiens), O43603;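 active = above mean plus 3 SD of all compounds, about 5% in these data, not always enough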;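 also: 0% = vehicle buffer wells and 100% = reference agonist at full effect; tested in CHO reporter cells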
Target sequence (O43603 whole entry, looked up): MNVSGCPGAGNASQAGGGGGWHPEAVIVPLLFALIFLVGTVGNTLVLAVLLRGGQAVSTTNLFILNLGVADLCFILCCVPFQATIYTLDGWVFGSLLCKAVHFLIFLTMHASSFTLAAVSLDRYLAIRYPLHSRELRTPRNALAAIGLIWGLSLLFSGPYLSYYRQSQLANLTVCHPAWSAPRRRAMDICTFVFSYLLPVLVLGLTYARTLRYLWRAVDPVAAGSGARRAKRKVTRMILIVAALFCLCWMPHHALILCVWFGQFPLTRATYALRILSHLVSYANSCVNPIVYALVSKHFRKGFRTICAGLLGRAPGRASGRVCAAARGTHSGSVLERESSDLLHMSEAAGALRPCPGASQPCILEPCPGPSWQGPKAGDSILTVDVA
PKD1 kinase inh – inhibitors of human PKD1 kinase, biochemical, fluorescence polarization; Serine/threonine-protein kinase D1 (Homo sapiens), Q15139; PKD1 kinase fluorescence polarization assay; inhibition, %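 (about 10 µM by stock and volumes)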; hit rate 0.056% among 200,000; AID 797, 2007;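 active = inhibition of 50% or more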;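 also: controls were vehicle for no effect and a reference inhibitor for full effect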
Insulin prom inh – inhibitors of insulin promoter-driven GFP, primary screen, imaging, TRM-6 cells (human fetal islet line), eGFP reporter, cell count. reporter expression induced with tamoxifen. inhibition, % at 2 µM. hit rate 0.9% among 130,000;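 active = inhibition above the mean plus 3 SD, with well images judged a real hit on visual review, cut at about 60% in these data, passing the limit was not always enough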
RGS16-Gao HTS – modulators of RGS16 binding to Galphao, primary screen, biochemical, human proteins, multiplexed bead flow cytometry; Regulator of G-protein signaling 16 (Homo sapiens) + Guanine nucleotide-binding protein …; bead-based flow cytometry RGS16-Galphao binding, fluorescence; actives lie on both sides; binding response (% of control), % at 10 µM; hit rate 0.38% among 220,000; AID 1441, 2008;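 active = below 25% or above 175%, edge rows of some plates excepted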;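 also: Galphao activated by GDP with aluminum fluoride before binding; 100% = wells without compound and 0% = beads without RGS; some results beyond the cut were filed as inactive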
Target sequence (O15492 whole entry, looked up): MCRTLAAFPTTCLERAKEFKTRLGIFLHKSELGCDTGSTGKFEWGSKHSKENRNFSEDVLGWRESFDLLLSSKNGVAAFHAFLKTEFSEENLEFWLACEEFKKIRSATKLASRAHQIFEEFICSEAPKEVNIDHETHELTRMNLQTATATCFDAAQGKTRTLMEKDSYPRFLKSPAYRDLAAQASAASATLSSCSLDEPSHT
Target sequence (P09471 whole entry, looked up): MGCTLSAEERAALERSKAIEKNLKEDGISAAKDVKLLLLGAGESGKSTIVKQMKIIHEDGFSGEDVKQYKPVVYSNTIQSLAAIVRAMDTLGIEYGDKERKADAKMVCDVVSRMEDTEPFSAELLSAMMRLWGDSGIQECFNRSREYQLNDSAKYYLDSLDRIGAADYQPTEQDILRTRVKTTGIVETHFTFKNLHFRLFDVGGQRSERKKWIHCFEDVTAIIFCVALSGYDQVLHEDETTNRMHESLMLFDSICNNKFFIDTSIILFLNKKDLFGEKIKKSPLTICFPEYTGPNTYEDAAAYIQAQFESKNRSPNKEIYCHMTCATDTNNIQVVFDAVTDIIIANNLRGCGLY
HSV replic up – enhancers of HSV replication in host cells, fold increase, host cell viability; HSV replication augmentation in cells; maximum fold increase; hit rate 0.005% among 220,000;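 active = peak rise of 1.5-fold or more in the series; tested in PC3 cells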;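 also: first round at 10 µM; read as green reporter fluorescence; hits show the peak of a series up to 25 µM; 1 = signal of infected wells without compound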
Insulin prom inh cell count – second read-out of Insulin prom inh, no call of its own (marks repeat the call); normalized cell count, %; measured here: cell count, toxicity; reference of the scale not given here;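 cells exposed to compound for 48 h; stained nuclei by imaging scaled within each plate; lower means fewer cells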
HSV replic up primary fold – second read-out of HSV replic up, no call of its own (marks repeat the call); fold increase; compound at 10 µM; measured here: primary screen fold increase 10 uM; tested in PC3 cells;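 GFP signal in the first replicate; 1 = infected wells without compound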
* marks the source's active call; other numbers are inactive results; i = inactive; . = not tested or not shown.

Each structure is followed by: GALR2 agonist	PKD1 kinase inh	Insulin prom inh	Insulin prom inh cell count	RGS16-Gao HTS	HSV replic up	HSV replic up primary fold
- COc1ccccc1NC(=S)N(Cc1ccco1)Cc1cc2cccc(C)c2[nH]c1=O
  -1.6	-3	11	99	100	i	1.2
- CCOc1cc(CNCC2CCCO2)cc(Br)c1OCC(N)=O (stereo unspecified)
  -0.4	3	-24	165	41	i	0.8
- CCN(c1ccccc1)S(=O)(=O)c1ccc(Cl)c(NC(=O)COC(=O)c2ccc(O)cc2)c1
  -1.5	-3	.	.	101	i	0.8
- Cc1ccc(C(=O)Nc2onc(C)c2C#N)cc1
  -1.1	-6	-27	85	98	i	0.94
- c1ccc(CSc2ccc(-c3cccnc3)nn2)nc1
  .	-1	0	75	97	i	0.96
- COc1ccc(N2CCN(C(=S)Nc3ccc(C)cc3C)CC2)cc1
  .	-8	.	.	107	i	1.1
- O=S(=O)(NC(=S)Nc1ccccc1)c1ccc(F)cc1
  .	.	.	.	100	i	0.85
- CC(C)NC(=O)NC(=O)CSc1nnc(COc2ccccc2F)n1C(C)C1CC2CCC1C2 (stereo unspecified)
  -1.5	9	-34	79	108	i	1.1
- O=C(c1ccccc1)N1CCN(c2ccc(NCc3ccc4c(c3)OCO4)cc2)CC1
  -2.2	-20	.	.	93	i	0.63
- CC1CCC2(CC1)SCC(=O)N2c1ccccc1 (stereo unspecified)
  -1.1	-12	53	138	41	i	0.95
- O=C(N/N=C/c1ccccc1C(=O)O)c1cccc(S(=O)(=O)Nc2cc(Cl)ccc2Cl)c1
  .	.	.	.	99	i	0.98
- O=c1oc2ccccc2n1Cn1c(=O)oc2ccccc21
  -0.7	-14	.	.	105	i	1
- Cc1ccc2c(c1)C(c1ccccc1)CC(=O)O2 (stereo unspecified)
  .	.	.	.	98	i	0.95
- CSC1=NS(=O)(=O)c2c(C)nn(C)c2S1
  .	.	.	.	77	i	0.91
- Cc1ccccc1C(O)c1ccncc1 (stereo unspecified)
  -2.6	-6	-14	124	104	i	1.1
- Cc1ccc(C)c(Cn2c(=O)n(CCCC(=O)NCc3ccco3)c(=O)c3ccccc32)c1
  0.1	1	-69	109	102	i	0.86
- O=C(/C=C/c1ccc2ccccc2n1)N1CCN(S(=O)(=O)c2ccc(F)cc2)CC1
  .	.	.	.	97	i	0.7
- CCOC(=O)N1CCN(C(=O)CSCC(=O)N=c2sc3ccccc3n2C)CC1
  -1.0	-4	-41	54	104	i	0.99
- COc1ccc2nc(NC(=O)c3cc(S(=O)(=O)N4CCOCC4)ccc3C)sc2c1
  -1.8	-7	31	94	107	i	1
- O=C(NC(=S)Nc1ccccc1N1CCOCC1)c1ccco1
  0.1	1	.	.	90	i	1

Compound profiles (already shown). Order of screens: GALR2 agonist, PKD1 kinase inh, Insulin prom inh, Insulin prom inh cell count, RGS16-Gao HTS, HSV replic up, HSV replic up primary fold
Entry for c1ccc(CSc2ccc(-c3cccnc3)nn2)nc1 : ., -1, 0, 75, 97, i, 0.96
Entry for CCOC(=O)N1CCN(C(=O)CSCC(=O)N=c2sc3ccccc3n2C)CC1 : -1.0, -4, -41, 54, 104, i, 0.99
Entry for COc1ccc2nc(NC(=O)c3cc(S(=O)(=O)N4CCOCC4)ccc3C)sc2c1 : -1.8, -7, 31, 94, 107, i, 1
Entry for O=C(/C=C/c1ccc2ccccc2n1)N1CCN(S(=O)(=O)c2ccc(F)cc2)CC1 : ., ., ., ., 97, i, 0.7
Entry for CCN(c1ccccc1)S(=O)(=O)c1ccc(Cl)c(NC(=O)COC(=O)c2ccc(O)cc2)c1 : -1.5, -3, ., ., 101, i, 0.8

Structural class: those above with a Cl atom.
Each structure is followed by: GALR2 agonist	PKD1 kinase inh	Insulin prom inh	Insulin prom inh cell count	RGS16-Gao HTS	HSV replic up	HSV replic up primary fold
- CCN(c1ccccc1)S(=O)(=O)c1ccc(Cl)c(NC(=O)COC(=O)c2ccc(O)cc2)c1
  -1.5	-3	.	.	101	i	0.8
- O=C(N/N=C/c1ccccc1C(=O)O)c1cccc(S(=O)(=O)Nc2cc(Cl)ccc2Cl)c1
  .	.	.	.	99	i	0.98

Next section.
Each structure is followed by: GALR2 agonist	PKD1 kinase inh	Insulin prom inh	Insulin prom inh cell count	RGS16-Gao HTS	HSV replic up	HSV replic up primary fold
- CC1(C)CC(=O)C(C=NCCc2ccccn2)=C(O)C1
  -0.7	5	10	78	101	i	0.88
- CCCCOC(=O)C1C2C=C[C@]3(CN(C(C)c4ccc(OC)cc4)C(=O)[C@H]13)O2 (stereo partly specified)
  -0.2	-5	.	.	102	i	0.87
- CCCC1CC(C#N)N(N(C)C)C1=C(C#N)C#N (stereo unspecified)
  .	.	.	.	101	i	0.99
- CC1=C(C(=O)Nc2ccccn2)C(c2cn(C)nc2C)C2=C(CCCC2=O)N1 (stereo unspecified)
  .	4	.	.	98	i	1
- CCS(=O)(=O)c1ccc(O)c(NC(=O)/C=C/c2ccc(Cl)cc2)c1
  .	.	.	.	105	i	0.89
- Cc1cc(C)cc(N(C(=O)c2snc(C(N)=O)c2N)C(C(=O)NCC2CCCO2)c2cccs2)c1 (stereo unspecified)
  .	-1	25	108	98	i	0.85
- Cc1cccc(NC(=O)N(Cc2nc3ccccc3c(=O)[nH]2)C2CCCC2)c1
  -0.9	-22	20	74	98	i	0.97
- CC(=O)Nc1ccc(S(=O)(=O)N2CCN(c3ccccn3)CC2)cc1
  1.4	-4	33	116	99	i	0.88
- C=C(c1ccc(OCCO)cc1)c1ccc(OCCO)cc1
  2.7	4	i	84	97	i	0.93
- Cc1ccc(C)c2nc(N3CCCC3)c(C#N)cc12
  0.2	-3	-12	91	101	i	0.91
- CC1=CCP(=O)(c2ccccc2)C1 (stereo unspecified)
  -0.9	8	.	.	98	i	1
- O=C(CNC(=O)c1ccc(Cl)cc1Cl)NCC(=O)Nc1ccccc1N1CCOCC1
  -1.6	-2	.	.	100	i	1
- CC1=NN(Cc2ccccc2)C(=O)C1C(c1ccccc1)C(C#N)C#N (stereo unspecified)
  -2.0	-8	17	95	89	i	0.94
- O=C(C(Cc1ccccc1)n1cccc1)N1CCCCC1 (stereo unspecified)
  -1.7	-1	.	.	102	i	0.91
- Cc1ccc(/C(N)=N/OC(=O)Oc2ccccc2)cc1
  -0.5	-11	18	82	113	i	1
- Nc1nc2ccc(S(=O)(=O)N3CCCCC3)cc2s1
  -5.3	-3	.	.	62	i	0.88
- Cc1ccc(CNC(=O)CCCCn2c(=O)[nH]c3ccsc3c2=O)cc1
  .	-6	.	.	99	i	1
- N#Cc1c(C(F)(F)F)cc(-c2cccs2)nc1N1CCCCC1
  .	.	.	.	106	i	1.2
- Fc1cccc(Cc2noc(CN3CCOCC3)n2)c1
  .	-3	.	.	116	i	0.93
- CSc1nc(C)cc(SCC(=O)N/N=C/c2ccccc2)n1
  0.0	-9	20	112	111	i	0.86

Next section
Each structure is followed by: GALR2 agonist	PKD1 kinase inh	Insulin prom inh	Insulin prom inh cell count	RGS16-Gao HTS	HSV replic up	HSV replic up primary fold
- C=CCNc1nc(-c2ccc(Cl)cc2)cs1
  0.3	-6	11	296	103	i	0.93
- CC(NC(=O)CN(C)Cc1nc2ccccc2c(=O)[nH]1)c1ccccc1 (stereo unspecified)
  -2.9	-9	29	71	113	i	0.99
- COC(=O)Cc1ccc(NC(=S)N2CCCC(CO)C2)cc1 (stereo unspecified)
  -0.3	3	.	.	108	i	1
- Cc1nc2ncnn2c(C)c1CCC(=O)N1CCc2ccccc21
  -0.7	-2	.	.	106	i	0.88
- CCCCSc1nc(CCC)cc(=O)[nH]1
  0.0	-4	17	112	96	i	0.8
- CCOC(=O)C(NC(=O)CC(C)C)(Nc1sc2c(c1C(N)=O)CCCC2)C(F)(F)F (stereo unspecified)
  -1.6	-1	-450	73	101	i	0.98
- COC(=O)CSCc1nc2ccccc2[nH]c1=O
  -1.3	-7	-120	105	108	i	1.1
- Cc1ccc(S(=O)(=O)CC(O)COc2ccc(F)cc2Cl)cc1 (stereo unspecified)
  .	-6	-8	69	95	i	0.96
- COCCCNC(=O)Cc1coc2ccc3ccccc3c12
  .	4	-7	86	99	i	0.96
- Cc1cccc2sc(N(CCCN(C)C)C(=O)CN3C(=O)c4ccccc4C3=O)nc12
  .	-1	11	76	101	i	1
- O=C(O)CSC(C(=O)Nc1ccc(Br)cc1)c1ccc(Cl)cc1 (stereo unspecified)
  .	-2	18	77	88	i	0.97
- COc1ccc(C(=O)c2sc3nc(-c4ccc(OC)cc4)ccc3c2N)cc1
  -1.4	3	-245	120	86	i	1.2
- c1ccc(CCc2nc(-c3cccnc3)no2)cc1
  -2.6	13	38	110	101	i	0.9
- Cc1cc(C)c(NC(=O)c2ccc(CN3CCc4ccccc4C3)cc2)c(C)c1
  -2.2	-13	32	144	94	i	0.99
- CCOC(=O)CCCc1ccc(/C(C)=N/NC(N)=S)cc1
  .	.	.	.	98	i	1.1
- O=C(COc1ccc(Cl)cc1)Nc1ccc(Cl)cn1
  -2.0	3	10	81	101	i	0.96
- Cc1cccc2c(CC(=O)O)noc12
  -0.9	2	19	67	99	i	1.1
- COc1ccccc1CCc1nnc(CCC(=O)NC(C)Cc2cccs2)o1 (stereo unspecified)
  .	-3	.	.	102	i	0.98
- COc1cc2c(c(OC)c1OC)-c1c(cc3c(c1O)OCO3)C[C@@H](C)[C@@H](C)C2
  .	.	.	.	101	i	0.81
- CCCCCCn1c(SCCCC)nc2c1c(=O)[nH]c(=O)n2C
  -0.1	-2	39	65	100	i	0.95

The list goes on.
Each structure is followed by: GALR2 agonist	PKD1 kinase inh	Insulin prom inh	Insulin prom inh cell count	RGS16-Gao HTS	HSV replic up	HSV replic up primary fold
- CCOc1cc(C2C3=C(CC(C)(C)CC3=O)Nc3n[nH]c(C)c32)ccc1O (stereo unspecified)
  .	-3	-82	37	90	i	1
- CCN(CC)P(=O)(Nc1ccc(SC(F)F)cc1)c1ccc(N(C)C)cc1NC(=O)c1ccco1 (stereo unspecified)
  .	-4	-57	70	177	i	0.84
- COc1ccc(-c2cc(-c3ccc(O)cc3)nc(N)c2C#N)cc1OC
  .	0	.	.	101	i	0.8
- CC(C)CNC(=O)c1ccccc1Oc1ccccc1
  -2.1	-2	-21	111	96	i	1.1
- CN(C)CC(C)(C)NS(=O)(=O)c1ccc(Cl)cc1
  -0.2	-3	.	.	103	i	1
- COc1cc(OC)cc(C(=O)NCCCN2CCN(CCCNC(=O)c3cc(OC)cc(OC)c3)CC2)c1
  -1.2	-10	22	53	129	i	0.99
- CCOc1ccccc1/C=C(/NC(=O)c1ccccc1)C(=O)NC(C)c1ccccc1 (stereo unspecified)
  0.8	-9	.	.	99	i	0.87
- O=C(CSc1ncn[nH]1)N1CCN(S(=O)(=O)c2ccc(Cl)cc2)CC1
  -1.1	0	19	54	98	i	0.95
- COc1ccc(C(C)(C)C)cc1NC(=O)CNc1cccc2ccccc12
  -0.9	-5	22	70	111	i	1.1
- C=CCNC(=S)/C(=C(\[O-])c1ccc(Cl)cc1)[n+]1ccccc1
  .	.	.	.	95	i	1.2
- Cc1ccc(-c2oc3ncnc(N)c3c2-c2ccc(C)cc2)cc1
  1.4	-10	39	73	104	i	0.94
- CC1(C)CC(=O)C2=C(C1)OC1=C(C(=O)CC(C)(C)C1)C2c1cc([N+](=O)[O-])cc([N+](=O)[O-])c1O
  .	5	-33	92	102	i	1
- COc1ccc(NC(=O)C(NC(=O)c2ccc(=O)[nH]c2)c2ccc(C)cc2)cc1 (stereo unspecified)
  -0.1	6	-44	95	110	i	0.96
- C/C(=N\NC(=O)C(N)=O)c1ccc(NC(=O)c2cccs2)cc1
  .	3	.	.	97	i	1
- CCC(C)OC(=O)n1ccc(C(=O)Nc2nccs2)n1 (stereo unspecified)
  -2.6	-5	22	220	177	i	0.91
- O=C(O)CNc1ccccc1C(=O)O
  .	.	.	.	96	i	0.74
- COc1ccc(OC)c(S(=O)(=O)N(C)CC(=O)Nc2ccc3c(c2)OCO3)c1
  1.1	-3	16	89	103	i	0.94
- CC(C)Sc1nc2ncnc(N)c2[nH]1
  .	6	44	85	72	i	0.92
- CCOc1ccc(N2C(=O)CN(c3cccc4ccccc34)C2=S)cc1
  .	6	-29	133	107	i	0.9
- Cc1[nH]c(N=Nc2ccccc2)nc1N=Nc1ccccc1
  .	.	.	.	97	i	0.72
- CNC(=O)c1cc(C(=O)c2ccc(C(F)(F)F)cc2F)c[nH]1
  .	-1	-4	44	100	i	0.98

Rows were taken by chance. About 1.2% of those tested had a hit in this group.
